Screening results from PubChem.
GIV Gai3 FP – inhibitors of GIV peptide binding to Galpha-i3, primary screen, biochemical, fluorescence polarization, FITC-GIV GBA peptide, rat Galphai3. 90 min; stronger effect = lower value; scaled: aluminum fluoride 0%, vehicle 100%. percent of control (FP), % (concentration not given with the values). 0.42% of 210,000 active. AID 1224905, 2016;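 active means replicate mean at 85% of control or lower, very high polarization wells dropped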;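 further: wells of about 15 µL received 100 nL stock; the first replicate is given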
Target sequence (P08753 whole entry, looked up): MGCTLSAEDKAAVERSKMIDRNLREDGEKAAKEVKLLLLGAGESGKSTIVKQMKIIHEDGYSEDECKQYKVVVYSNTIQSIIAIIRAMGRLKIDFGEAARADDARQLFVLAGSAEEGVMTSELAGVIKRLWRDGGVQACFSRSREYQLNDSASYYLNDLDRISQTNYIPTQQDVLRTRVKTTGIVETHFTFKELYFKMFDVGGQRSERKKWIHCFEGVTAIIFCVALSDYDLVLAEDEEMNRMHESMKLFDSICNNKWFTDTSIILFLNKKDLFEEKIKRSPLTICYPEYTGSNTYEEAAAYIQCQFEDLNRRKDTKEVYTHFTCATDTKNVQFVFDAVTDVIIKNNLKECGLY
Sa growth inh – S. aureus growth inhibition at 42 and 30 °C, primary screen, LtaS inhibitor project, RN4220, two temperatures; OD600, 20 h, 42 °C; stronger effect = lower value; relative growth, % (concentration not given with the values); 0.53% of 170,000 active; AID 720641, 2013;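 active means growth at 42 °C up to 50% and 20 or more points under that at 30 °C, or under 10% at both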;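 further: 300 nL library stock went into each well; scaled to the means of positive and negative controls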
HCMV NEC inh – inhibitors of HCMV UL50-UL53 interaction, biochemical, HTRF; HCMV UL50-UL53 nuclear egress complex (human cytomegalovirus); normalized percent inhibition; inhibition, % (no concentration beside the values); 0.15% of 190,000 active; AID 1918969, 2023;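 active means both replicates at 50% or more, plus weaker picks with an unusually low signal ratio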;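 further: stock transfer was 100 nL into about 20 µL; 0% = negative control wells and 100% = wells with untagged competitor protein; inactives centre near -12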
Sa growth inh second temp – further read-out of Sa growth inh, marked with its call; relative growth, %; measured here: growth at 30 °C;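 optical density after 20 h as mean of two plates; 100% = untreated growth and lower means inhibition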
Starred values were filed as active, the others as inactive; . = not tested or not shown.

SMILES	GIV Gai3 FP	Sa growth inh	Sa growth inh second temp	HCMV NEC inh
CC(C)(C)C(=O)CSC1=NCCS1	.	86	89	-16
CCCc1cc(=O)[nH]c(SC)n1	100	85	86	.
O=C(NC1CCC(C(F)(F)F)OC1=O)c1ccccc1 (stereo not given)	.	114	91	-28
CC1CCN(S(=O)(=O)c2ccc3c(c2)CCC(=O)N3CC(=O)N2CCc3ccccc32)CC1	109	.	.	-18
Nc1ncnc2nc(N3CCCCC3)[nH]c12	.	113	84	-5
CCOC(=O)c1c(CSc2ccccc2)oc2ccc(O)c(CN(C)C)c12	.	60	45	-3
CCOC(=O)CN1C(=O)C(CC)Oc2ccc(Cl)cc21 (stereo not given)	109	93	88	3
Cn1c(=O)c2ccccc2n2c(COC(=O)C3(Cc4nc5ccccc5s4)CCCCC3)nnc12	.	113	91	4
Cc1cccc(-n2ccnc2SCC(=O)Nc2cc(C(F)(F)F)ccc2Cl)c1	97	86	85	.
Nc1ccccc1-c1nnn(CC(=O)Nc2ccccc2)n1	100	115	94	-6
Cc1c(C(=O)O)sc2ncn(CC(=O)Nc3ccc(C(C)C)cc3)c(=O)c12	100	.	.	-16
Cc1ccc(-c2nc3cc(Cl)cc(Cl)c3o2)cc1NC(=O)c1ccc2c(c1)OCCO2	101	.	.	-15
CN1CCN(c2ccc(NS(=O)(=O)c3cccc(C(F)(F)F)c3)cc2)CC1	95	91	96	-10
O=C(NC1CC1)C1CCN(c2ccc(Sc3ccc(Cl)cc3)nn2)CC1	103	.	.	-44
CCc1ccc(-n2c(C)nc3cc(C(=O)NCCc4ccccc4)ccc32)cc1	102	77	54	.
CCOc1ccccc1NC(=O)c1ccco1	.	85	70	-10
CC(C)S(=O)(=O)c1cscc1Cl	109	101	87	-2
COc1ccc(Cl)cc1NC(=O)C1CCCN(c2ncnc3onc(C)c23)C1 (stereo not given)	109	117	98	.
Cn1nc(-c2cccs2)cc1N	99	117	86	-7
O=c1[nH]c(NCCO)nc2sc3c(c12)CCCC3	104	105	66	-3
COc1ccc(NS(=O)(=O)c2ccc3[nH]c4c(c3c2)CCCCC4)cc1	107	114	101	.
COc1cc2c(-c3cccc(Cl)c3)nc3c(c(C)nn3-c3ccccc3)c2cc1OC	106	107	94	-10
CCN(C(=O)c1cnc(N2CCOCC2)c2ccccc12)c1cc(C)ccc1C	108	109	91	.
Cc1nc2c3ccccc3nc(NNC(=O)CCC(=O)N3CCC(C)CC3)n2n1	106	107	93	-2
CC1CCCCC1NC(=O)c1cccc(NS(=O)(=O)c2ccc(Br)cc2)c1 (stereo not given)	105	100	95	.
CC(C)N=Cc1c(O)[nH]c2ccccc12	103	110	81	.
COC(=O)/C=C1\SC(=Nc2ccc(Cl)cc2)N(c2ccc(Cl)cc2)C1=O	101	125	102	.
O=S(=O)(c1ccc(Cl)cc1)c1nnn2c1nc(NCc1cccs1)c1sccc12	105	103	83	.
COc1ccc2c(c1)CCc1c(C(=O)NCCc3ccccc3)noc1-2	104	96	99	6
Cc1cc(=O)[nH]c(SCC(=O)Nc2ccc(Br)cc2)c1C#N	.	7.7*	2.9*	-8
Cc1cc(C)n2nc3nc(N4CCCC4)nc(-c4ccccc4)c3c2n1	105	110	88	0
COc1cccc2cc(C(=O)Nc3ccc(S(=O)(=O)N4CCOCC4)cc3)c(=O)oc12	99	95	68	3
COc1cc(Cn2cnnn2)ccc1O	101	91	88	-11
CCSc1nn2c(=O)cc(CSc3nc4ccccc4s3)nc2s1	101	.	.	17
COc1cc(C(=O)NCC#N)cc(OC)c1OC	99	95	89	-10
Cc1ccc(NC(=O)c2nc3ncccn3n2)cc1	101	102	99	-1
O=C(NCCCN1CCOCC1)c1cc2ccccc2o1	.	110	90	-26
O=C(CCSc1nnc2scc(-c3ccc(Cl)cc3)n12)NCCc1ccccc1	102	92	87	.
CCCOc1ccc(CNC(=O)CCCN2C(=O)CSc3c2c(C)nn3-c2ccccc2)cc1	105	83	91	.
COc1cccc(Nc2nnc(Cc3cccnc3)c3ccccc23)c1	100	87	66	.
O=c1ccc(-c2ccc(Br)s2)n[nH]1	102	94	89	-42
O=C(Cn1cc(S(=O)(=O)c2ccc(F)cc2)c(=O)c2cc3c(cc21)OCO3)Nc1ccccc1	100	101	98	-12
Cc1csc(Nc2ccccc2)[n+]1CCO	.	97	77	-26
Cc1cc(C)cc(NC(=O)Cn2c(=O)n(C(C)C)c(=O)c3oc4ccccc4c32)c1	106	100	80	.
COc1ccc(OC)c(NC(=O)N2CCN(S(=O)(=O)c3ccc4c(ccn4C)c3)CC2)c1	99	97	92	.
Cc1cc2c(cc1S(=O)(=O)NCCc1ccc(Cl)cc1)OCC(=O)N2	105	.	.	1
Cc1ccc(Cc2nc3ccccc3nc2SCC(=O)N2CCCCC2)cc1	104	64	57	.
COc1nc(NCCCC(C)C)nc(N2CCC(Cc3ccccc3)CC2)n1	104	91	87	-7
Cc1nn(C)cc1S(=O)(=O)N1CCc2ccccc2C1	105	89	93	11
O=C1NCCCC1C(=O)N1CCN(C(c2ccccc2)c2ccccc2)CC1 (stereo not given)	98	87	89	-16
O=S(=O)(c1ccc2c(c1)NCCS2)N1CC=C(c2ccccc2)CC1	96	.	.	10
CC(Cn1cnc2ccccc21)C(=O)N=Nc1c(O)[nH]c2ccccc12 (stereo not given)	97	99	91	-41
Cc1ccccc1NC(=O)C1CCN(C(=O)c2ccc(F)cc2)CC1	107	102	88	-58
CCOc1ccccc1C(=O)OCC(=O)N1CCN(c2ccccc2)CC1	.	103	84	-3
CCC(C(=O)Nc1ccc(OC)cc1)n1sc2ccccc2c1=O (stereo not given)	99	113	94	-7
O=C(O)c1cccnc1NC1CCCC1	100	105	85	-7
Cc1ccc(Cc2nc3c(nnn3Cn3nnc(-c4ccc(Cl)cc4)n3)c(=O)[nH]2)cc1	102	83	87	-11
CCN1CCN(c2ncc3c(n2)CC(c2cc(OC)c(OC)c(OC)c2)CC3=O)CC1 (stereo not given)	95	87	90	.
Cn1c(COC(=O)c2sc3ccccc3c2Cl)nc2ccccc21	98	97	83	-26
O=c1c(C=NCCN2CCOCC2)c(C(F)(F)F)[nH]n1-c1nc2ccccc2s1	.	87	94	-7

Arranged by length of the SMILES (descending): 20 of the compounds above.
SMILES	GIV Gai3 FP	Sa growth inh	Sa growth inh second temp	HCMV NEC inh
O=C(Cn1cc(S(=O)(=O)c2ccc(F)cc2)c(=O)c2cc3c(cc21)OCO3)Nc1ccccc1	100	101	98	-12
COc1ccc(OC)c(NC(=O)N2CCN(S(=O)(=O)c3ccc4c(ccn4C)c3)CC2)c1	99	97	92	.
Cc1cc(C)cc(NC(=O)Cn2c(=O)n(C(C)C)c(=O)c3oc4ccccc4c32)c1	106	100	80	.
CCCOc1ccc(CNC(=O)CCCN2C(=O)CSc3c2c(C)nn3-c2ccccc2)cc1	105	83	91	.
CCN1CCN(c2ncc3c(n2)CC(c2cc(OC)c(OC)c(OC)c2)CC3=O)CC1 (stereo not given)	95	87	90	.
O=c1c(C=NCCN2CCOCC2)c(C(F)(F)F)[nH]n1-c1nc2ccccc2s1	.	87	94	-7
O=C(CCSc1nnc2scc(-c3ccc(Cl)cc3)n12)NCCc1ccccc1	102	92	87	.
CC(Cn1cnc2ccccc21)C(=O)N=Nc1c(O)[nH]c2ccccc12 (stereo not given)	97	99	91	-41
O=S(=O)(c1ccc2c(c1)NCCS2)N1CC=C(c2ccccc2)CC1	96	.	.	10
COc1nc(NCCCC(C)C)nc(N2CCC(Cc3ccccc3)CC2)n1	104	91	87	-7
CCOc1ccccc1C(=O)OCC(=O)N1CCN(c2ccccc2)CC1	.	103	84	-3
CCC(C(=O)Nc1ccc(OC)cc1)n1sc2ccccc2c1=O (stereo not given)	99	113	94	-7
CCSc1nn2c(=O)cc(CSc3nc4ccccc4s3)nc2s1	101	.	.	17
Cc1nn(C)cc1S(=O)(=O)N1CCc2ccccc2C1	105	89	93	11
Cc1ccc(NC(=O)c2nc3ncccn3n2)cc1	101	102	99	-1
COc1cc(C(=O)NCC#N)cc(OC)c1OC	99	95	89	-10
O=c1ccc(-c2ccc(Br)s2)n[nH]1	102	94	89	-42
Cc1csc(Nc2ccccc2)[n+]1CCO	.	97	77	-26
O=C(O)c1cccnc1NC1CCCC1	100	105	85	-7
COc1cc(Cn2cnnn2)ccc1O	101	91	88	-11

More entries
SMILES	GIV Gai3 FP	Sa growth inh	Sa growth inh second temp	HCMV NEC inh
CCCn1cnc2cc(NCc3ccc(Br)cc3)ccc21	104	0.3*	-0.2*	8
Cc1nc2ccc(Br)cc2c(=O)n1-c1cc(C(F)(F)F)ccc1N1CCOCC1	101	90	81	-17
CC(C)Sc1cc2c(cc1NC(=O)c1cccc(F)c1)n(C)c(=O)n2C	107	.	.	-9
COc1ccccc1N1C(=O)N(c2ccccc2)C2CS(=O)(=O)CC21 (stereo not given)	98	.	.	-21
CCOc1ccc(NC(=O)Cn2c(=O)oc3cc(S(=O)(=O)NC4CCCC4)ccc32)cc1	109	97	81	-38
COc1ccc2oc(=O)c(-c3cc4c(c(C)n3)c(=O)oc3ccc(OC)cc34)cc2c1	106	111	91	-9
CC(C)NC(=O)c1ccc2c(c1)nc(CN1CCN(S(=O)(=O)c3ccc4c(c3)CCC4)CC1)n2C	99	.	.	6
O=C(Nc1c(-c2ccccc2)nc2ncccn12)c1ccccc1	101	92	88	-16
CN(CC(=O)NC1CCCc2ccccc21)S(=O)(=O)c1ccc2c(c1)C(=O)NCC(=O)N2 (stereo not given)	105	.	.	4
CCC(Cn1nnc2ccccc2c1=O)NC(=O)Nc1cccc(Cl)c1 (stereo not given)	98	97	89	3
CCOC(=O)c1ccc(NC(=O)Cn2nc3c4ccccc4n(Cc4cccc(F)c4)cc-3c2=O)cc1	103	83	94	.
COc1ccccc1-n1c(=O)c2c3c(sc2n2c(=S)[nH]nc12)CCC3	102	79	82	.
Cc1cc(C)n(C(=O)c2cccc(Cl)c2)n1	100	75	87	0
O=C(Cn1c2ncccc2c(=O)n1-c1ccccc1)Nc1cc(F)ccc1F	105	.	.	3
Cc1oc(-c2ccc(C(=O)N3CCCCC3)cc2)nc1COc1ccccc1	93	92	50	-24
O=c1[nH]ncc(NCc2ccc(Cl)cc2)c1Cl	99	108	83	3
COC(=O)Cn1c(C)cc(=O)n2nc(-c3cccc(C)c3)nc12	102	.	.	-22
Cc1ccccc1Nc1sc(C(=O)c2ccccc2)c(N)c1C(=O)NCc1ccc(Cl)cc1	99	98	91	.
O=S(=O)(NC1CCCCCCC1)c1cnc[nH]1	98	.	.	-41
O=C(NCCSc1c[nH]c2ccccc12)c1ccc(S(=O)(=O)N2CCCC2)cc1	96	100	72	.

Reprinted from the part before: three entries; new compounds follow.
SMILES	GIV Gai3 FP	Sa growth inh	Sa growth inh second temp	HCMV NEC inh
Cc1ccccc1Nc1sc(C(=O)c2ccccc2)c(N)c1C(=O)NCc1ccc(Cl)cc1	99	98	91	.
O=S(=O)(NC1CCCCCCC1)c1cnc[nH]1	98	.	.	-41
O=C(NCCSc1c[nH]c2ccccc12)c1ccc(S(=O)(=O)N2CCCC2)cc1	96	100	72	.
CC1Cc2cc(C3(O)C(=O)c4ccccc4C3=O)ccc2N1 (stereo not given)	.	109	80	-52
CCOC(=O)c1ccc(NC(=O)C2CCN(Cc3cnn(-c4ccccc4)c3-n3cccc3)CC2)cc1	104	98	91	-14
CCN1CCCC1CNC(=O)c1ccc(N2CCCC2=O)cc1 (stereo not given)	97	97	95	-3
c1ccc(CSc2nccn3nc(-c4ccccc4)cc23)cc1	105	.	.	-6
CCOC(=O)c1cc(S(=O)(=O)Nc2c(C)cc(C)cc2C)[nH]n1	101	96	88	.
Oc1ccccc1C=Nc1ccc(OC(F)(F)C(F)F)cc1	99	96	98	2
O=C(CN1CCOc2ccccc21)NCc1ccccc1	100	89	89	4
COc1ccccc1NC(=O)CSc1oc(-c2ccc(F)cc2)nc1S(=O)(=O)c1ccc(Br)cc1	103	97	89	-15
CC(C)C(C)NC(=O)CSc1nc(N)cc(N)n1 (stereo not given)	.	75	95	-16
COC(=O)Nc1ccc2ncn(C)c(=O)c2c1	100	103	87	-2
O=C(CSCn1nnc2c(=O)[nH]c(Cc3ccc(F)cc3)nc21)Nc1cccc(C(F)(F)F)c1	104	110	86	-1
CCOC(=O)/C(C#N)=C/c1c(C)nn(Cc2ccccc2)c1C	.	93	100	-12
Cc1c(C)c(C)c(CSCc2n[nH]c(=S)n2-c2ccc(F)cc2)c(C)c1C	100	89	89	-8
CCOC(=O)c1ccc(NC(=O)N2CCC(n3nnc4cc(C(=O)N(C)C)ccc43)CC2)cc1	107	.	.	8
Cc1ccc(OCc2nc(SCc3c(C)noc3C)n[nH]2)cc1	.	97	94	-8
C=CCSc1nnc(-c2cc(C(C)(C)C)nn2Cc2ccc(F)cc2)n1C	106	105	94	-1
O=C(NO)c1ccc(Br)s1	.	118	75	-42
Cc1cc(C)n(CCc2nc3c4ccccc4nc(SCc4ccc(F)cc4)n3n2)n1	103	89	89	.
COC(=O)CSc1nc2ccccc2s1	101	98	90	-23
